Screening data as filed in PubChem.
A1 apoptosis 2 – blocks A1, raising caspase activity; MEF A1-2A-BIM cells, caspase-Glo luminescence, 3 h; percent of clofoctol response, DMSO zero; caspase activation, % (concentration not given with the values); 24,000 tested, under 10 active; AID 2465; in the data active = caspase activation above about 5.9%;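 note: wells of about 30 µL received 50 nL stock; the first replicate is given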
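Material: A1-2A-BIM-expressing MEF cells. Buffer or medium: RPMI-1640 plus 10% FBS. Incubation: cells settled overnight, compound exposure 3 h at 37 °C, 5% CO2. Signal: Caspase-Glo 3/7 luminescence, 1 h at room temperature.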
* marks the source's active call; other numbers are inactive results. These rows are one share of the data, so the mix of outcomes need not match the whole.

Start of the data: the first 2 compounds as a preview:
SMILES	A1 apoptosis 2
C[C@@H]1CN([C@H](C)CO)C(=O)CCCn2nncc2CO[C@@H]1CN(C)C(=O)Oc1ccc2ccccc2c1	0.4
C[C@@H]1CN([C@H](C)CO)C(=O)CCCn2cc(nn2)CO[C@H]1CN(C)C(=O)Oc1ccc2ccccc2c1	0.9

All compounds of this part, from the start:
SMILES	A1 apoptosis 2
C[C@@H]1CN([C@H](C)CO)C(=O)CCCn2nncc2CO[C@@H]1CN(C)C(=O)Oc1ccc2ccccc2c1	0.4
C[C@@H]1CN([C@H](C)CO)C(=O)CCCn2cc(nn2)CO[C@H]1CN(C)C(=O)Oc1ccc2ccccc2c1	0.9
CCOC(=O)[C@@H]1[C@@H]2NC(=O)N(C)[C@@]1(COCc1ccc(OC)cc1)Oc1ccccc12	-0.6
COc1ccc(OC(=O)N(C)C[C@@H]2OCc3cnnn3CCCC(=O)N([C@H](C)CO)C[C@@H]2C)cc1	1.0
C[C@@H]1CN([C@H](C)CO)C(=O)CCCn2cc(nn2)CO[C@@H]1CN(C)C(=O)Oc1ccc2ccccc2c1	-0.7
C[C@H](CO)N1C[C@H](C)[C@H](CN(C)C(=O)Oc2ccc3ccccc3c2)OCc2cnnn2CCCC1=O	-0.2

Some values from the list.
Under A1 apoptosis 2, C[C@@H]1CN([C@H](C)CO)C(=O)CCCn2cc(nn2)CO[C@H]1CN(C)C(=O)Oc1ccc2ccccc2c1 is entered as 0.9
Under A1 apoptosis 2, C[C@@H]1CN([C@H](C)CO)C(=O)CCCn2cc(nn2)CO[C@@H]1CN(C)C(=O)Oc1ccc2ccccc2c1 is entered as -0.7
